# Screening results (PubChem BioAssay)
# AID504770 – growth inhibitors of E. coli YBA685 in a screen for V. cholerae RctB (chromosome II replication) inhibitors; z-score (concentration not given with the values); 130,000 compounds, 0.27% hits; AID 504770; E. coli YBA685 rctB-dependent plasmid, OD600 growth, 3 h; active compounds read low;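 active = z-score under -2 on both plates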;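 note: wells of about 30 µL received 100 nL stock; score is relative to mean and SD of the test wells; the first replicate is given; strong numbers were not always called active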
# Ba CapD inh – inhibitors of Bacillus anthracis CapD enzyme. 140,000 compounds, 0.23% hits. purified CapD enzyme, fluorescence intensity read-out; active compounds read low; some hits fall short of the stated cut. AID 492967. z-score (test concentration not listed);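 active = z-score under -4 in either of two replicates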;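 note: stock transfer was 100 nL into about 40 µL; score is relative to mean and spread of the plate; one replicate is shown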
# Numbers without * were called inactive; . = not tested or not shown; & = joins results of further samples. This is a random part of the collection; 0.39% or so of the library scored in one or more.
# Sample of the layout:
SMILES,AID504770,Ba CapD inh
COC(=O)c1cccc(NC(=O)NC(C)(C)C)c1,-1.1,1.7
O=C(O)c1cc(N2N=C(C(F)(F)F)/C(=C/c3ccc(-c4ccccc4)o3)C2=O)ccc1Cl,1.1,-0.43
COc1cccc(CNC(=O)c2cc3ccccn3n2)c1,-0.85,1.8
CCC(=O)Oc1cccc(N2C(=O)C3C4C=CC(C4)C3C2=O)c1 (configuration not stated),-0.05,0.68
CS(=O)(=O)c1ccc(Cn2cc(-c3ccncc3)cn2)cc1,.,-0.39
O=S(=O)(/C=C/c1ccccc1)N1CCc2ccccc2C1,0.8,-0.08
Cn1c(=O)cc(SCC(=O)NCc2cccnc2)c2ccccc21,-1.6,-1.2
Cc1nc(-c2ccc(Cl)cc2)c(-c2ccccc2)s1,-1.1,0.35
COc1cccc(OC)c1CN1CCC(OC(=O)Nc2ccccc2)CC1,.,-0.2
CCCc1c(C(=O)NC2CCN(C(=O)OCC)CC2)cnn1-c1ccccc1,-0.95,-0.72
COc1cc(C=C2C(=O)NC(=O)NC2=O)ccc1OCCSc1cccc2ccccc12,.,-0.5
CC(=O)NC(=O)CSc1nc2ccccc2o1,-0.9,-0.7
O=C(O)CCC(=O)N1CCc2cc(S(=O)(=O)NCCc3ccc(Cl)cc3)ccc21,-0.15,-0.09
CC(=O)NS(=O)(=O)c1ccc(N=NN2CCCCC2)cc1,0.75,.
COCCN(C(=S)Nc1cccc(Cl)c1C)C(C)c1ccccn1 (configuration not stated),-1.1,0.32

# Main list, from the first entry:
SMILES,AID504770,Ba CapD inh
COC(=O)c1cccc(NC(=O)NC(C)(C)C)c1,-1.1,1.7
O=C(O)c1cc(N2N=C(C(F)(F)F)/C(=C/c3ccc(-c4ccccc4)o3)C2=O)ccc1Cl,1.1,-0.43
COc1cccc(CNC(=O)c2cc3ccccn3n2)c1,-0.85,1.8
CCC(=O)Oc1cccc(N2C(=O)C3C4C=CC(C4)C3C2=O)c1 (configuration not stated),-0.05,0.68
CS(=O)(=O)c1ccc(Cn2cc(-c3ccncc3)cn2)cc1,.,-0.39
O=S(=O)(/C=C/c1ccccc1)N1CCc2ccccc2C1,0.8,-0.08
Cn1c(=O)cc(SCC(=O)NCc2cccnc2)c2ccccc21,-1.6,-1.2
Cc1nc(-c2ccc(Cl)cc2)c(-c2ccccc2)s1,-1.1,0.35
COc1cccc(OC)c1CN1CCC(OC(=O)Nc2ccccc2)CC1,.,-0.2
CCCc1c(C(=O)NC2CCN(C(=O)OCC)CC2)cnn1-c1ccccc1,-0.95,-0.72
COc1cc(C=C2C(=O)NC(=O)NC2=O)ccc1OCCSc1cccc2ccccc12,.,-0.5
CC(=O)NC(=O)CSc1nc2ccccc2o1,-0.9,-0.7
O=C(O)CCC(=O)N1CCc2cc(S(=O)(=O)NCCc3ccc(Cl)cc3)ccc21,-0.15,-0.09
CC(=O)NS(=O)(=O)c1ccc(N=NN2CCCCC2)cc1,0.75,.
COCCN(C(=S)Nc1cccc(Cl)c1C)C(C)c1ccccn1 (configuration not stated),-1.1,0.32
Cc1cc(N2CCOCC2)nc(N2CCOCC2)n1,0.2,.
CC(C)c1ccc(NC(=O)CSc2ncccc2C(=O)NCc2ccccc2Cl)cc1,.,-1
COc1ccc(CCNC(=O)c2ccc(Sc3ccc(C)cc3)c(NC(C)=O)c2)cc1OC,-0.65,0.45
CSc1ccccc1NC(=O)CN(C)S(=O)(=O)c1ccccc1Cl,-0.05,.
Cc1ccc(S(=O)(=O)N2CCCC2c2nc3ccccc3s2)cc1 (configuration not stated),.,-0.69
O=C1COc2ccc(NC(=O)Oc3ccccc3)cc2N1,0,0.15
CC1CCCCN1CCn1cnc2c([nH]c3ccc(Cl)cc32)c1=O (configuration not stated),0.7,3.6
Cc1ccc(N2CCN(C(=O)c3cccs3)CC2)c(C)c1,0.7,0.11
CC(C)(C)C(=O)OCc1nc(-c2ccc(C#N)cc2)cs1,-0.15,2
COc1ccc(/C=C/C(=O)NCc2nc3ccccc3[nH]2)cc1OC,0.4,33
O=S(=O)(NCCSCc1c(F)cccc1Cl)c1cccc2nonc12,-0.35,-0.31
CC(NC(=O)c1ccc(C(F)(F)F)cc1)C(c1cccs1)N1CCCC1 (configuration not stated),0.65,0.025
CCCCn1c(NCc2ccccc2OC)nc2ccccc21,-0.5,0.79
CNC(=C[N+](=O)[O-])NCCSCc1csc(CN(C)C)n1,.,-0.45
CN(C)c1ccc(NC(=O)c2sc(=S)[nH]c2N)cc1,0.2,-0.65
O=S(=O)(c1cc(Cl)sc1Cl)N1CCN(c2cc(C(F)(F)F)ccn2)CC1,.,4.1
CN(C(=O)CO/N=C/c1ccc(OC(F)F)cc1)C1CCS(=O)(=O)C1 (configuration not stated),1.2,.
c1ccc2c(CNCCN3CCOCC3)cccc2c1,-0.5,.
CN1c2ccsc2-c2nc(SCc3ccc(Cl)cc3)ncc2S1(=O)=O,-0.2,0.09
CCOc1cc(/C=c2\sc3n(c2=O)C(c2c(OC)ccc4ccccc24)C(C(C)=O)=C(C)N=3)ccc1O (configuration not stated),.,-0.74
Cc1nn(-c2ccccc2)c(C)c1C(N)=O,1.1,0.5
O=c1nc(Nc2ccccc2)nc(Nc2ccccc2)[nH]1,.,-0.07
CCOc1ccc(N=CC23c4ccccc4C(c4ccccc42)C2C(=O)N(c4ccccc4)C(=O)C23)cc1 (configuration not stated),.,-0.085
COc1ccc(Nc2nc(Cl)nc(NCc3ccco3)n2)cc1,.,0.12
COC(=O)c1sc(SC)c2c1CC(C)(C)C/C2=N/O,.,-0.71
CC1(C)CC(=O)C=C(NCCO)C1,-0.45,-0.91
Brc1ccc(-c2nnc3sc(CNC4CCCC4)cn23)cc1,2.6,-1.2
COc1ccc2c(c1)-c1c(ssc1=S)C(C)(C)N2C(C)=O,-0.7,-0.76
COC(=O)C1[C@H]2C[C@H]3c4[nH]c5ccccc5c4CCN3C[C@@H]2CC[C@@H]1O (some centres not stated),0.95,-1.4
CCCCCCC(=O)Nc1cccc(C(=O)N/N=C/c2c(O)ccc3ccccc23)c1,.,0.3
COc1ccc(CN(C)C(=O)c2cc(C)n(C(C)C)c2C)c(OC)c1,-0.8,.
O=C1CCCN2N=C(SCC(=O)Nc3ccccc3C(F)(F)F)SC2=N1,-0.25,.
Clc1ccc2c(c1)C(c1ccccc1)=NNC(c1ccc(Br)cc1)=N2,.,-0.4
COc1ccc(/C=C/C(=O)N2CCOCC2)cc1,-0.75,-1.3
N#Cc1c(N2CCCC2=O)sc2c1CCCCC2,0.75,.
COc1cc(SC)ccc1C(=O)N1CCCCCC1,-0.3,0.29
CC(=O)Oc1ccc(/C=C2\N=C(c3ccc(C(C)(C)C)cc3)OC2=O)cc1OC(C)=O,.,-0.2
O=[N+]([O-])c1cc(C(F)(F)F)ccc1Sc1nnc(-c2cccs2)n1-c1cc(C(F)(F)F)cc(C(F)(F)F)c1,.,-0.8
CN(C(=O)c1cc2c(s1)-c1ccccc1OC2)c1ccccc1,-0.35,-0.34
CCn1c(SCC(=O)N(C)C)nnc1-c1ccccc1,0.15,.
CCOC(=O)C1=NNC2(C)C(=O)N(c3ccc(C)c(C)c3)C(=O)C12 (configuration not stated),.,-0.18
CCC(=O)N1c2ccccc2N2C(c3c(C)cc(C)cc3C)=NON12,.,-0.23
O=C1COCC(=O)N1Cc1csc2ccccc12,0.35,-0.2
CS(=O)(=O)CCSc1ncccc1C(=O)Sc1ccc(Cl)cc1Cl,0.05,-0.22
COc1ccc(N2CCN(C(=O)CCC3=NS(=O)(=O)c4ccc(C(F)(F)F)cc4N3)CC2)cc1,0.75,0.26
# The list continues:
SMILES,AID504770,Ba CapD inh
CC(C)(C)C1CCC(OC(=O)CN2CCOCC2)CC1 (configuration not stated),-0.9,-1.2
CN=C1S/C(=C\c2cc3c(cc2Br)OCO3)C(=O)N1C,.,0.51
O=S(=O)(NCc1ccc(F)cc1F)c1ccc(Br)s1,.,0.12
CC1N=C(SCC#N)N2C(C)N=C(SCC#N)N12 (configuration not stated),0.05,-0.45
COc1ccc(Nc2ncc3c(n2)CC(c2ccccc2)CC3=O)cc1 (configuration not stated),-1.9,.
O=c1c2ccccc2nc2n1CC(=NCc1ccccc1)N(Cc1ccccc1)C2,-0.65,.
CCn1c(CNC(=O)c2cccc(C)c2)nnc1SCC(=O)NC1=NCCS1,-0.25,.
CC(=O)OCc1cc2cccc3c2n(c1=O)CCC3,.,11
N#CC1=C(N)Oc2c(c(=O)oc3ccccc23)C12C(=O)N(CC(N)=O)c1ccccc12 (configuration not stated),-0.75,-0.51
Cc1ccc(S(=O)(=O)NC(=O)N(C)CCc2ccccn2)cc1,-0.25,0.16
CC1(C)Cc2c(c(N3CCOCC3)[nH]c(=S)c2C#N)CS1,-0.3,0.23
CC(=O)N(C)Cc1nc(-c2ccc(Cl)cc2)no1,-0.85,.
Cc1cc(=S)[nH]c2cc(Br)ccc12,-1.6,.
CNc1nc(-c2cccs2)ns1,-1,0.14
COCCOC(=O)C1=C(C)NC2=C(C(=O)CC(c3ccc(Cl)cc3)C2)C1c1cc(OC)ccc1OC (configuration not stated),.,7.2
COc1ccc(-c2cc(C3CC3)nc(SCC(N)=O)c2C#N)cc1,-0.2,0.62
CN(C(=O)OCC1CCCN(Cc2ccc3ccccc3c2)C1)C1CCN(Cc2cc3ccccc3o2)C1 (configuration not stated),.,0.98
CC(=O)Oc1ccc([N+](=O)[O-])cc1/C=C1\Sc2ccccc2C1=O,.,-1.7
O=C(Nc1ccc(Cl)cc1)c1ccc(N2CC3CC(C2)c2cccc(=O)n2C3)c(NC(=O)c2ccccc2Cl)c1 (configuration not stated),.,0.98
O=C(Cn1cc(C(=O)c2ccco2)c2ccccc21)Nc1ccccc1,0.25,.
CC(Sc1nnc(-c2ccccc2F)n1CCc1ccccc1)C(=O)NCc1ccco1 (configuration not stated),0.8,.
CCOC(=O)N1CCN(C(=O)c2ccc3c(=O)n(-c4ccc(OC)cc4OC)c(=S)[nH]c3c2)CC1,.,-1.4
O=C(c1cc2nc(-c3ccc([N+](=O)[O-])cc3)cc(C(F)(F)F)n2n1)N1CCN(Cc2ccccc2)CC1,.,-1.3
CN(C)CCN1C(=O)C(=O)/C(=C(/O)c2ccc(S(=O)(=O)N3CCOCC3)cc2)C1c1ccc(Br)cc1 (configuration not stated),-2.1,-0.26
COc1ccc(-c2cn3nc(-c4ccc(F)cc4)c(-c4ccc(F)cc4)nc3n2)cc1,.,-0.33
Cc1cc(C(F)(F)F)c(C#N)c(=O)[nH]1,.,77&70
O/N=C(\c1ccc(Cl)cc1Cl)c1ncc(C(F)(F)F)cc1Cl,.,-0.39
Cc1cc(C(=O)COC(=O)Cc2ccsc2)c(C)n1NC(=O)c1ccccc1,-0.15,.
Cc1c(Cl)cccc1N1C(=O)C(N2C(=O)c3cccc([N+](=O)[O-])c3C2=O)C1c1cccs1 (configuration not stated),.,-0.015
Clc1c(-c2nnc3n2CCC3)sc2ccccc12,-0.8,0.13
CN1CCN(C(=O)c2cc3nc(-c4ccc(Cl)c(Cl)c4)cc(C(F)(F)F)n3n2)CC1,.,0.07
O=C(CSc1nn(-c2ccc(F)cc2)c(=S)s1)NC1CC1,-0.3,.
CNC(=O)C1CCCN1S(=O)(=O)c1ccc(OC)cc1 (configuration not stated),-0.85,-0.21
CCOC(=O)C1=C(C)N=c2s/c(=C/c3cn(C)c4ccccc34)c(=O)n2C1c1cc(OC)ccc1OC (configuration not stated),.,-0.06
CCCCc1nnc(SCC(=O)Nc2nccs2)n1CC,0.05,0
CCOC(=O)C1=C(c2ccccc2)NC(SCC(N)=O)=C(C#N)C1c1ccco1 (configuration not stated),-0.65,-0.015
Cc1c(C(=O)OC2CCCC2)[nH]c2c1C(=O)CCC2,-1.3,0.3
O=C(NC1CC1)C1CCN(c2cnccn2)CC1,-0.4,4.7
CC(C)Cn1cc(C(=O)NCc2cccnc2)c2c3ccccc3n(C)c2c1=O,0.6,47
COc1ccc(NC(=O)c2cc(-c3cccs3)nc3ccccc23)cc1,2.1,26
CN(C(=O)Cc1cccc2ccccc12)C(C)(C)C#N,0,.
COc1ccc(-n2nc(C(=O)N3CCC(C)CC3)c3c4ccccc4n(C)c3c2=O)cc1,0.1,1.1
Cc1cccc2sc(N)nc12,-1.5,.
O=C(CCCn1c(=O)c2cccn2c2ccccc21)N1CCCCC1,-0.25,-0.41
CCSc1ccc(NC(=O)CC2c3ccccc3Oc3ccccc32)cc1,1.1,3.2
CCOC(=O)c1ccc(Nc2ccc(-c3ccc(OC)c(OC)c3)nn2)cc1,1.7,.
NNC(=O)CNC(=O)C1COc2ccccc2O1 (configuration not stated),0.6,-0.51
Cc1oc2cc(OC(C)C)ccc2c(=O)c1-c1ccccc1,-1.2,0.085
O=C1NC(=O)/C(=C\c2cn(Cc3ccccc3F)c3ccccc23)N1,0.15,-0.47
Cc1[nH]c2ccccc2c1C=Nc1ccc(Cl)cc1C(=O)c1ccccc1,-0.6,-1.1
CC1=C(C(=O)N2CCOCC2)C(c2ccccc2)NC(=O)N1 (configuration not stated),0.1,.
Cc1ccc2oc(-c3ccccc3)c(CN3CCOCC3)c(=O)c2c1,-0.1,-0.67
COc1ccc(-c2nc3ccc(C(=O)N4CCN(c5cc(C)ccc5C)CC4)cc3nc2-c2ccc(OC)c(OC)c2)cc1OC,.,-0.97
CC(C)c1cc(Oc2ccc(N)cn2)cc(C(C)C)c1,.,14
Cc1cc(C(=O)NC(C(=O)OCc2ccc([N+](=O)[O-])cc2)C(C)C)nn1C (configuration not stated),.,-0.54
N#Cc1cc2c(nc1SCc1ccccc1)CCCC2=O,-0.7,0.36
CCCOc1ccc(NC(=O)C2OC3OC(C)(C)OC3C3OC(C)(C)OC23)cc1 (configuration not stated),.,-0.11
CS(=O)(=O)/N=C(\N)c1ccccc1,-0.45,0.8
N#Cc1c(-c2ccccc2)nc(SCC(=O)NC2CCCCC2)[nH]c1=O,-0.2,0.41
